Screening data: PubChem BioAssay, National Center for Advancing Translational Sciences (NCATS)
Menin MLL FP FL – qHTS Assay for Inhibitors Targeting the Menin-MLL Interaction in MLL Related Leukemias: Competition With Fluorescein Labeled MLL-derived Peptide | Fluorescence polarization, fluorescein-MLL peptide displacement from menin | FP activity change, % at 61.4 µM | 290,000 tested, under 10 active; inconclusive = falling polarisation curve, or a change in total fluorescence; inactive = total fluorescence flat and polarisation flat or rising; no compound was filed as active; the % refers to the polarisation; negative = inhibition;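 further: % of control where 0% means no effect; inhibitors lower the polarisation; unlabelled MLL peptide was the positive control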
gsp antagonist – qHTS for Antagonists of gsp, the Etiologic Mutation Responsible for Fibrous Dysplasia/McCune-Albright Syndrome: qHTS; gsp-mutant cells, cAMP HTRF, 30 min; control for the full effect not named in the record; Potency, µM (doses to about 76.9 µM), without a hit: at the top dose activity change, negative = inhibition, usual class: inhibitors; 340,000 compounds, 0.4% hits; AID 624288, 2012; active = falling curve of any shape with a large fitted effect; inconclusive = falling curve, mostly with a smaller effect; inactive = flat or rising curve; cell line not stated here;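 further: intracellular cAMP measured with PDE inhibitor Ro 20-1724 present during compound exposure; potency means the concentration at half of the fitted maximal effect; on the % scale 0 is the no-effect control and ±100 the full control effect; nearly all actives have a fitted effect of over 65% in size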
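HTRF cAMP read-out (cAMP-d2 plus anti-cAMP antibody-K in lysis buffer, 30 min RT). Before lysis, cells are exposed to compounds with […] for 30 min at 37C in DPBS containing Ca/Mg, BSA and Tween 20.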
Sfp PPTase inh – qHTS Assay for Inhibitors of Bacillus subtilis Sfp phosphopantetheinyl transferase (PPTase); 310,000 compounds, 3.5% hits; Potency, µM, for inactives: max response, negative = inhibition, actives largely listed as inhibitors; Biochemical Sfp PPTase activity, qHTS; 4'-phosphopantetheinyl transferase ffp (Bacillus subtilis), Q9F4F7; active means well fitted inhibition curve with a large enough effect; inconclusive means small, poorly fitted or top-dose-only effect, or another doubt; inactive means no such curve, though single readings can be large or run the other way;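 further: the enzyme is Sfp with the accession as filed and its product quenches rhodamine fluorescence; potency means the concentration at half of the fitted maximal effect; 0% = enzyme reaction without inhibitor and -100% = no enzyme wells; top concentration of the series not given in the record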
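Step 1, compound plus 15 nM Sfp-PPTase, 15 min, room temperature. Step 2, add rhodamine-CoA (5 uM) and BHQ-2-YbbR (12.5 uM). Step 3, read 525/598 nm fluorescence at 0 and 30 min.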
PINK1 modulator – A Quantitative High throughput Screen to Identify Chemical Modulators of PINK1 Expression | PINK1 immunofluorescence, high-content cytometry, 24 h | Potency, µM (highest dose often 76.6 µM), without a hit: at the highest dose activation (PINK1 increase), most hits filed as activators | 410,000 compounds, 0.2% hits | AID 624263, 2012; active = well fitted activation curve with a large enough effect; inconclusive = small, poorly fitted or top-dose-only effect; inactive = flat fitted curve, though single readings scatter; cell line not stated here;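 further: potency means the concentration at half of the fitted maximal effect; % of control where 0% means no effect; nearly all actives have a fitted effect of over 65% in size; a mitochondrial uncoupler was the plate control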
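PINK1 protein, normally rapidly degraded, was detected by immunofluorescence after 24 hour compound treatment of a stable cell line. Titration data (5 concentrations) came from laser-scanning cytometry, with CCCP-treated wells as controls.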
D2 agonist – Beta-Arrestin HTS for Positive Allosteric Modulators of the Human D2 Dopamine Receptor: Agonists; 360,000 compounds, 0.084% hits; D(2) dopamine receptor (Homo sapiens), P14416; DiscoveRx PathHunter D2 beta-arrestin, luminescence, 90 min; 100% = 57 uM dopamine signal; activation, % (concentration not given with the values); in the data active = activation above about 40%; inconclusive = about 15% to 40%; inactive = below about 15%; further: the text of the record calls up to 30% inactive
Target sequence (P14416 whole entry, looked up): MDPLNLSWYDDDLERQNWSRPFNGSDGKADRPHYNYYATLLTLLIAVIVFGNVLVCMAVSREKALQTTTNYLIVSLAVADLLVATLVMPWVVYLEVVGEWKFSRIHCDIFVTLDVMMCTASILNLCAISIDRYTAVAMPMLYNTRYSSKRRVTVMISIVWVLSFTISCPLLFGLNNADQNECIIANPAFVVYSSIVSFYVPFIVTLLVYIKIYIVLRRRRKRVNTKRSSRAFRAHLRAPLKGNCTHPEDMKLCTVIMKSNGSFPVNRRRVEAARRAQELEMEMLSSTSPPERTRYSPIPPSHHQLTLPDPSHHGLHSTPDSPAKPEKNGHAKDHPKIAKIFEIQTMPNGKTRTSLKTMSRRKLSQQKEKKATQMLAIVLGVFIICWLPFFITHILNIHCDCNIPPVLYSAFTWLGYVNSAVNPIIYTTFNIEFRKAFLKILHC
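DiscoveRx PathHunter D2 beta-arrestin cells (2,100/well) attached overnight, then compound-stimulated 90 min at 37 C in HBSS/10 mM HEPES/0.1% Tween-20 buffer; beta-galactosidase complementation read by luminescence after 1 h at ambient temperature. Dopamine 57 uM final (EC100) as control.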
gsp ag – qHTS for Agonist of gsp, the Etiologic Mutation Responsible for Fibrous Dysplasia/McCune-Albright Syndrome: qHTS. 340,000 compounds, 0.13% hits. Potency, µM (doses to about 76.9 µM), for inactives: at the top dose activation (cAMP increase), hits mostly activators. gsp mutant cells, cAMP HTRF, 30 min; control for the full effect not named in the record. AID 624287, 2012; active = well fitted activation curve with a large enough effect; inconclusive = small, poorly fitted or top-dose-only effect, or another doubt; inactive = no such curve, though single readings can be large or run the other way; cell line not stated here;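 further: phosphodiesterase inhibitor Ro 20-1724 added with compounds to block cAMP breakdown; potency means the concentration at half of the fitted maximal effect; nearly all actives have a fitted effect of over 60% in size; about a fifth of the inactives were tested at one dose only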
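Cells in DMEM/10% FBS with G418 were pretreated with compounds in DMSO plus […] (300 uM stock) for 30 min at 37C. cAMP was measured by HTRF (cAMP-d2 plus anti-cAMP antibody-K) after 30 min at room temperature.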
ClpP mod – qHTS Assay for Activators of ClpP; purified B. subtilis ClpP, FRET peptide cleavage, 20 min; ATP-dependent Clp protease proteolytic subunit (Bacillus subtilis (strain 168)), P80244; 340,000 compounds, 1.9% hits; AID 651965, 2013; Potency, µM (series often up to 57.5 µM), for the others: at the top dose activity change, negative = active; active = well fitted falling curve with a large enough effect; inconclusive = small, poorly fitted or top-dose-only effect; inactive = no such curve, though single readings can be large or run the other way; further: potency means the concentration at half of the fitted maximal effect; the source files actives as falling curves though it sought activators and does not explain the sign; nearly all actives have a fitted effect of over 65% in size; many hits overshoot -100%
Target sequence (P80244 whole entry, looked up): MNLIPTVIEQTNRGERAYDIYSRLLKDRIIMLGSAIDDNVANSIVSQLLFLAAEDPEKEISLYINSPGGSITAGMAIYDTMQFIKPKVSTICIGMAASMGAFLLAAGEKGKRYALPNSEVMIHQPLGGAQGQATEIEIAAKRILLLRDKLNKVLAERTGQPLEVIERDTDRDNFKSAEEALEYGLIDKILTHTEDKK
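FRET quenching reversal measured ClpP activation: 10 microg/mL B. subtilis ClpP at pH 8 with the FRET-FV decapeptide, read at 430 nm after 320 nm excitation. The 20-min minus 0-min signal was scaled between DMSO/no-enzyme wells and ADEP (5.8 microM final).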
Starred values were filed as active, the others as inactive; ? = inconclusive; / = not tested or not shown; & = joins results of further samples; [ ] = another dose, or the depositor's remark.

SMILES | Menin MLL FP FL | gsp antagonist | Sfp PPTase inh | PINK1 modulator | D2 agonist | gsp ag | ClpP mod
CC(Oc1ccc(F)cc1)C(=O)/C=C\N(C)C (stereo not drawn) | 5.4 | -4% | -2% | -0.2% | 0.6 | 11% | 0.2%
Cc1cccc(NC(=O)c2cccc(OC(=S)N3CCOCC3)c2)c1C | / | 12% | 0% | 8.8% | 7.1 | -3%[15.4 µM] | -1.1%
COC(=O)[C@@]12CCCCN1[C@H](c1ccc(-c3ccc(C(C)=O)cc3)cc1)[C@@H]1C(=O)N(C)C(=O)[C@@H]12 | / | ? | / | -0.9% | -1.1 | / | -1.5%
COc1ccc(OC)c(Nc2cc3ccccc3c(=O)[nH]2)c1 | / | 7% | / | 5.9% | 1.9 | / | -13%
COc1ccc(N2CCN(CCNC(=O)Nc3ccc([N+](=O)[O-])cc3OC)CC2)cc1 | 3.6 | 6% | 5% | -0.6% | -4.2 | 3% | /
COc1ccc(CNc2nnnn2C)cc1 | -6.2 | 6% | 11% | 0.4% | -0.2 | -28% | /
CCNC(=O)COC(=O)c1[nH]c(C)c(C(=O)OC)c1C | -1.5 | -6% | 8% | -0.6% | 0.2 | 6%[15.4 µM] | -2.9%
CCOC(=O)C(C)(C)Sc1ncnc2nc[nH]c12 | 1.4 | 12% | 0% | -7.5%[38.3 µM] | -2.8 | -15% | -0.7%
CSc1ccc(-c2nnn(Cc3ccc(Br)cc3)n2)cc1 | 5.7 | -7% | -1% | -1.5% | -1.2 | 0% | -6.9%
Cc1cccnc1NC(=O)c1cccc(S(=O)(=O)N2CCCC2)c1 | / | 15% | / | 0.8% | -1.3 | -5% | 1.0%
O=C(COc1ccc(Cl)cc1)NCCSCc1ccccc1Cl | -0.5 | -17% | 12% | 1.4% | -1.6 | -25% | 0.5%
COc1cc(OC)cc(C(=O)OCc2ccc([N+](=O)[O-])cc2)c1 | 1.8 | 1% | 8% | 15% | 0.2 | 18% | /
CC(C)c1nnc(NC(=O)c2cc3cc(Br)ccc3oc2=O)s1 | 3.7 | -17% | 3% | 1.9% | 5.9 | -6%[15.4 µM] | /
Cc1ccc(S(=O)(=O)NCCC(=O)OCC(=O)NC(=O)c2cccn2C)cc1 | 3.7 | 2% | 9% | -0.6% | -1.1 | 20% | -0.8%
CC(CCC(=O)O)C1CCC2C3CC(O)C4CC(O)CC[C@]4(C)C3CCC12C (stereo partly drawn) | / | -16% | / | -0.6% | 2.5 | / | 0.2%
COc1cc(C(=O)N/N=C/c2coc3ccc(Cl)cc3c2=O)ccc1O | 4.5 | 1% | -4% | -0.9% | -0.8 | -4% | -0.4%
Cc1onc(-c2ccccc2Cl)c1C(=O)OCC(=O)N1CCN(c2ccccc2)CC1 | / | ? | / | -1.2% | -2.3 | 1% | 1.7%
CC(C)(Sc1cc(C(C)(C)C)c(O)c(C(C)(C)C)c1)Sc1cc(C(C)(C)C)c(O)c(C(C)(C)C)c1 | -1.1 | 1% | 10%&2%&2%&19% | -0.1% | -3.5 | / | 0.8%
O=C1CC(Nc2ccccc2)C(=O)N1CCc1ccccc1 (stereo not drawn) | 1.2 | 17% | 19% | 1.1% | -2.3 | 8% | 1.0%
Cc1cc(C)c2oc(C(=O)Nc3ccc(S(=O)(=O)N4CCC(C)CC4)cc3)cc(=O)c2c1 | 0.9 | -9% | 4% | 1.0%&4.7% | -3.0 | -2% | -2.5%&-1.7%
O=C(CCNC(=O)Cn1ccc2ccccc2c1=O)NCC1CCCC1c1ccccc1 (stereo not drawn) | 0.2 | -1% | 10% | 2.5% | -2.6 | 13% | 4.0%
C(=N\n1cnnc1)/c1ccccc1OCCOc1ccccc1 | 1.8 | 3% | 2% | 1.7% | -3.9 | 0% | -11%
COc1cccc(C2/C(=C(\O)c3ccc4c(c3)OCCO4)C(=O)C(=O)N2CCCN2CCOCC2)c1OC (stereo not drawn) | / | 26% | 14% | -0.5% | 2.3 | 8.9µM* | -0.1%
CCN(CC)C(=O)C(=O)N/N=C/c1cccs1 | -0.5 | 2% | 3% | 0.1% | -0.1 | 27% | 1.5%
O=C(NCCCc1ccccc1)c1cccc([N+](=O)[O-])c1 | 0.0 | 6% | 6% | 0.1% | -2.9 | -12% | -3.0%

(further entries)
SMILES | Menin MLL FP FL | gsp antagonist | Sfp PPTase inh | PINK1 modulator | D2 agonist | gsp ag | ClpP mod
CCCCOc1ccc2c(c1)C(=O)c1cc(O)ccc1-2 | -4.5 | -5% | -2% | -1.4% | -0.2 | 5%[15.4 µM] | /
CN1C=CC=C/C1=C1\SC(=S)N(Cc2ccccc2)C1=O | 13 | -6% | -20% | 1.8% | -1.9 | -27% | /
CCOc1ccc(NC(=O)CN2C(=O)CSc3ccc(S(=O)(=O)N4CCCC4)cc32)cc1 | / | -28% | 6% | -1.0% | -12 | 26% | 0.1%
COC(=O)c1nc(N)sc1-c1ccc(OC)cc1 | 2.1 | 5% | 7% | -0.1% | 3.2 | -2% | -6.0%
COc1ccc(N(CC(=O)NCCc2ccccc2)C(=O)CCC(=O)Nc2nccs2)cc1 | -2.7 | -3% | 11% | 5.5% | -4.1 | -35% | /
Cc1cccc(N2CCN(C(=O)c3cnn4c(C(F)F)cc(-c5ccccc5)nc34)CC2)c1C | 0.7 | 2% | 1% | 0.6% | -3.4 | -6% | -7.2%
Cc1ccc(-c2[nH]nc3c2C(c2ccccc2OC(=O)N2CCOCC2)C(C#N)=C(N)O3)cc1 (stereo not drawn) | -1.6 | -2% | 26% | 0.6%[38.3 µM] | -2.5 | -47% | 0.1%
CC(=O)c1ccc(NC(=O)CSc2nnc(Cc3cccn3C)n2-c2ccc(F)cc2)cc1 | 4.5 | -15% | -9% | 0.6% | -3.7 | -18% | 6.3%
O=C(Nc1cc(Cl)ccc1O)c1cc(-c2ccco2)on1 | 10 | -4% | -4% | 1.7% | -2.3 | 4%[15.4 µM] | /
COc1ccc(CN2CCN(C(=O)c3ccc(S(=O)(=O)NCc4ccco4)cc3)CC2)cc1 | / | -8% | / | 3.9% | 4.5 | -13% | -2.7%
COc1cc(OC)cc(-c2c(C#Cc3ccsc3)c3cc(-c4ccc(OC)c(F)c4)ccc3n2C)c1 | / | 4% | / | 0.1% | -0.7 | -15% | 3.6%
O=C(NCCN1C(=O)S/C(=C\c2cccnc2)C1=O)c1cccc(OC(F)F)c1 | -0.6 | -4% | -8% | -0.4% | -0.3 | 17% | -6.8%
CCCCCCCCCC1NC(C(=O)O)Cc2c1[nH]c1ccccc21 (stereo not drawn) | / | / | / | 1.1% | -3.0 | ? | -4.8%
CCOC(=O)c1c(NC(=S)NCCc2ccccc2)sc2c1CC(C(C)C)OC2 (stereo not drawn) | 2.5 | -6% | 6% | 18% | -6.0 | 29% | -5.7%
COc1ccc(NC(=O)/C(C#N)=C/c2ccc(Sc3nncn3C)c([N+](=O)[O-])c2)cc1 | 2.0 | 11% | -18% | -1.8% | 1.8 | -30%[inhibitor] | /
Clc1ccc(-c2nc(Cc3ccccc3Cl)no2)cc1 | 1.6 | -1% | -6% | 17% | -0.6 | 6% | -1.8%
CCN1CCN(CC(O)COc2ccc(Cl)cc2)CC1 (stereo not drawn) | 0.5 | 12% | -3% | -0.4% | 0.8 | 5% | 1.2%
CC(=O)c1ccc(NC(=O)COc2ccc3c(c2)OCO3)cc1 | -4.0 | 2% | 4% | -1.2% | -21 | -2%[15.4 µM] | /
CCOC(=O)c1ccc(S(=O)(=O)NNC(=O)COc2cccc(C)c2)cc1 | -0.6 | -9% | 18% | 0.4% | 0.0 | 0% | -2.1%
COc1ccc(NC(=O)COc2ccc(C(=O)OCC(=O)N(C(C)C)C(C)C)cc2OC)cc1 | -1.1 | -8% | 24% | 0.8% | 5.5 | -8% | 0.6%
CCOc1cc(N2C(=O)CC3CS(=O)(=O)CC32)c(OCC)cc1NC(=O)c1ccccc1 (stereo not drawn) | 4.6 | -3% | -8% | -2.8% | 3.9 | 1% | -1.8%
COc1ccccc1NC(=O)Nc1nc(CC(=O)NCc2cccnc2)cs1 | / | 5% | / | 5.9% | -0.8 | 5% | -3.5%
CCN(CC)CCCN(Cc1cc2cc(OC)c(OC)cc2[nH]c1=O)C(=O)Nc1ccccc1 | 2.8 | -4% | 15% | -1.4% | -7.1 | 0% | 32µM*
CCOC(=O)C1CCCN(c2nc3ccccc3nc2C(C#N)C(=O)OC(C)C)C1 (stereo not drawn) | 5.2 | -7% | -4% | 1.6% | -2.1 | -9% | -9.7%
COc1cc2c3c(c1)C(C)CC(C)(C)N3C(=O)C2=O (stereo not drawn) | -2.3 | -9% | 23% | 2.2% | -2.5 | 19%[15.4 µM] | /
CCCn1c(SCC(=O)Nc2cc(C)on2)n[nH]c1=O | / | 2% | / | 5.3% | 8.3 | -17% | 5.6%
NC1=NC(=O)C2(COC(c3cccc([N+](=O)[O-])c3)OC2)S1 (stereo not drawn) | -10 | 7% | 19% | 2.6% | -2.9 | -13%[15.4 µM] | /
COc1ccc(-c2nc(N)nc(C(F)(F)F)c2-c2ccccc2OC)c(O)c1 | 0.9 | 6% | 18% | 1.4% | -4.7 | -38% | 0.0%
O=C(CSc1ccccc1C(=O)O)NCc1ccco1 | 7.6 | 12% | 17% | 0.2% | 0.1 | 1% | -2.1%
